Screens as filed in PubChem.
VDR inhibitor: inhibitors of human vitamin D receptor; P11473; 400,000 tested, 0.93% active; Potency, µM, without a hit: max response, negative = inhibition, hits mostly inhibitors; AID 504847; VDR-SRC2-3 peptide fluorescence polarization, 2 h; active = well fitted inhibition curve with a large enough effect; inconclusive = small, poorly fitted or top-dose-only effect, or another doubt; inactive = no such curve, though single readings can be large or run the other way; note: series mostly up to about 120 µM
Target sequence (P11473 whole entry, looked up): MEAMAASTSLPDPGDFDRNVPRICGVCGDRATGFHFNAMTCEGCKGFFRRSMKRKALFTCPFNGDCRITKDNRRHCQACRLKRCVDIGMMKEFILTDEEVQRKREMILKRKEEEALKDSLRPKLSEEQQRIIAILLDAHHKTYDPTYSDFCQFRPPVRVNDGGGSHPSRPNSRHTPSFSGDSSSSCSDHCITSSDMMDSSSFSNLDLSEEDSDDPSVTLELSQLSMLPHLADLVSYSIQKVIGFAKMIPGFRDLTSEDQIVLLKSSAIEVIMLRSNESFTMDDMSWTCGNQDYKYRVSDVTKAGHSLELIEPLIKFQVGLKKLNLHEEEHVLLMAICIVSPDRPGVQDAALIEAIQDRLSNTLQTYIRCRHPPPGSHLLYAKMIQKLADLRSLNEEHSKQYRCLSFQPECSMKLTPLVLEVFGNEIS
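Fluorescence polarization assay of small-molecule disruption of VDR binding to coregulator peptide SRC2-3. Compounds and controls pin-transferred, then read after 2 h incubation at ambient room temperature.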
* marks the source's active call; other numbers are inactive results; ? = inconclusive; & = joins results of further samples. % is set by controls: 0 for no effect and ±100 for the full control effect; potency is the fitted concentration of half-maximal effect. Only part of the results is shown; rates above refer to the full screens.

mol | VDR inhibitor
Cc1cccc(C(=O)NCCc2sc(-c3ccccc3)nc2C)c1 | -1%
Cc1ccc(-c2cc(C(=O)N3CCN(c4ccccc4O)CC3)c3ccccc3n2)cc1 | 8%
COc1cc(/C=C(/C#N)C(=O)Nc2cc(C(F)(F)F)ccc2Cl)ccc1OCC(=O)Nc1cccc(C(F)(F)F)c1 | 5%
COCCNC(=O)CN(C(=O)CCC(=O)Nc1ccccn1)c1ccc(OC)cc1 | -3%
COC(=O)C1=C(C)n2nnnc2NC1c1ccc(Cl)cc1 (stereo not drawn) | 15%
Nc1scn[n+]1Cc1cccc2cccnc12 | -8%
Cn1c(Cn2c(=O)sc3ccccc32)nnc1SCC(=O)NC1CCCC1 | -23%
Cc1ccccc1N(C=O)c1ccccc1C | 15%

(listing goes on)
mol | VDR inhibitor
CCOC(=O)c1cccc(NC(=O)c2nn(-c3ccc(OC)cc3)c(=O)c3c2c2ccccc2n3C)c1 | ?
Cc1cc(C)c(NC(=S)NC(=O)c2ccc(-c3ccccc3)cc2)c(C)c1 | -13%
CCOc1ccc(C2CC(=O)Nc3c2c(=O)nc(SCc2ccccc2C)n3C)cc1OC (stereo not drawn) | 9%
COc1cc(/C=N/NC(=O)c2ccc([N+](=O)[O-])cc2Cl)cc(Br)c1O | -11%
O=C(CSc1nc(-c2ccco2)cc(C(F)(F)F)n1)N1CCN(Cc2ccccc2)CC1 | 0%
CSc1ccccc1C(=O)NCc1ccc(C)cc1 | -5%
Cc1ccc2nc(C3CCN(S(=O)(=O)c4ccc5ccccc5c4)CC3)[nH]c2c1 | 0%
Nc1nc(SCc2nc(-c3ccccc3)no2)[nH]c(=O)c1-c1ccccc1 | 14%

The list continues:
mol | VDR inhibitor
COc1ccccc1CN1CCCCC1C(=O)O (stereo not drawn) | 10%
CC(C)CNC(=O)C1CCN(c2ccc(S(=O)(=O)N3CCOCC3)cc2Cl)CC1 | -2%
COc1ccc(NC(=O)C2=NN(C3CCS(=O)(=O)C3)C(=O)CC2)cn1 (stereo not drawn) | -10%
COc1ccc(OC)c(NC(=O)CSc2nn3c(=O)c(C)nnc3s2)c1 | 3%
CN(C)CC#CCC(O)(c1ccccc1)c1ccccc1 | 0%
COc1ccc(C2=Nn3c(nnc3-c3cccnc3)SC2)cc1OC | 0%
Cn1c(=O)[nH]c(=O)c2c1[nH]c(=S)n2Cc1ccccc1 | 89µM*
O=C(CSc1nc2ccccc2nc1N1CCCCC1)Nc1ccc(F)cc1 | ?

Following part.
mol | VDR inhibitor
CC[C@]1(C(=O)OC)[C@H]2C(=O)N(C)C(=O)[C@H]2[C@H]2CN=C(SCC3CC3)N21 | 17%
COC(=O)c1cncc(C)c1 | -10%
COc1cc(/C=N/Nc2nc(N3CCCC3)nc(N3CCCC3)n2)ccc1OCc1ccccc1F | -10%
Cc1ccccc1NC(=O)CSc1cn(CC(=O)N2CCCC2)c2ccccc12 | 1%
CC1(C)CC(=O)C(C=NCCN2CCN(C(=S)NC3CCCCC3)CC2)=C(O)C1 | -15%
Cc1ccc(NC2=NC(C(=O)Nc3ccc(C)c(C)c3)CC(=O)N2)cc1 (stereo not drawn) | 13%
O=C(Cn1cnc2cc([N+](=O)[O-])ccc2c1=O)Nc1cccc2ccccc12 | 16%
Nc1nc(N2CCN(C/C=C/c3ccccc3)CC2)nc2ccccc12 | 1%

(more compounds)
mol | VDR inhibitor
O=C(NCc1cccc(Cl)c1)C1CCCN(c2nn3cc(-c4ccc(F)cc4)nc3s2)C1 (stereo not drawn) | -5%
Cc1ccc(C)c(S(=O)(=O)n2cnc3ccccc32)c1 | 4%
CCOC(=O)c1cnc(-c2ccccc2)nc1Oc1ccc(Cl)cc1 | 0%
CCOC(=O)N1CCN(C(=O)CSc2ccc(-c3ccncc3)nn2)CC1 | 11%
CCC1CN2CCC1CC2[C@@H](NC(=S)Nc1cc(C(F)(F)F)cc(C(F)(F)F)c1)c1cccc2ccc(OC)cc12 (stereo partly drawn) | -12%
Cc1ccc(NCc2nnc(SCC(=O)Nc3ncc(C)s3)n2Cc2ccco2)c(C)c1 | -10%
CCOC(=O)C1CCN(S(=O)(=O)c2cc(Br)cc3c2N(C(=O)C2CC2)CC3)CC1 | -21%
Cc1ccc(N2C(=O)CSC23C(=O)N(CC(=O)NCCc2ccccc2)c2ccccc23)cc1 (stereo not drawn) | 8%

(listing goes on)
mol | VDR inhibitor
O=C(CCCc1ccccc1)NCc1cn2ccsc2n1 | 0%
O=C(NCc1ccc(F)cc1)C1CCN(c2cnccn2)CC1 | ?
Cc1ccc(S(=O)(=O)Nc2cc(Br)cc3cccnc23)cc1 | 1%
Cn1c(CC(=O)Nc2ccccc2Cl)nnc1SCC(=O)NC1=NCCS1 | 1%
COc1cc(OC)cc(-c2nc3ccccc3s2)c1 | -4%
CCc1ccc(C2CC(c3ccc(F)cc3)Nc3nc(N)nn32)cc1 (stereo not drawn) | 7%
O=C(NCCF)C1Nc2ccc(OC(F)(F)F)cc2C2C=CCC12 (stereo not drawn) | -29%
CC(C)(C)OC(=O)N1CCC(c2cc(=O)n3[nH]cc(C(=O)NC4CCCC4)c3n2)CC1 | -1%

Later entries.
mol | VDR inhibitor
CCc1cc(OCCCSc2nc(C)cc(=O)[nH]2)ccc1Cl | -5%
O=C(CN1C(=O)c2ccccc2S1(=O)=O)NCCSC1CCCCC1 | 3%
CN(CC(=O)O/N=C(\N)c1cccc([N+](=O)[O-])c1)S(=O)(=O)c1ccccc1 | 8%
COc1ccc(C(=O)ON=C2C=C(C)C(=O)C(C)=C2)cc1 | -11%
COc1ccc(NC(=O)CC(c2ccc(F)cc2)c2ccc(OC(C)C)cc2)cc1 (stereo not drawn) | 6%
O=C(CCCOc1ccc(Cl)cc1)Nc1ccc(N2CCOCC2)cc1 | -12%
COCCn1c(N)c(C(=O)OCc2ccccc2)c2nc3ccccc3nc21 | -11%
O=c1cc(-c2ccc(O)cc2)oc2cc(O)c([C@@H]3O[C@H](CO)[C@@H](O)[C@H](O)[C@H]3O)c(O)c12 | -6%&-2%

Next compounds follow:
mol | VDR inhibitor
N=C1C(c2ccccc2)=C(O)CN1c1ccc2c(c1)OCO2 | 1%
CN(C)/C=C(/C(=O)c1ccc(Cl)c(Cl)c1)c1nnnn1-c1ccccc1 | -25%
O=C(OCc1ccco1)c1cccnc1 | -19%
CCCn1c(N)c(C(=O)CN(C)CC(=O)Nc2ccccc2CC)c(=O)[nH]c1=O | -2%
CCCc1cc(=O)c2c(O)ccc(OC)c2o1 | 0%
COc1ccc(-c2noc(CN(C)C(=O)c3ccc4c(c3)OCO4)n2)cc1 | -3%
CCOC(=O)c1c(C)[nH]c(C)c1S(=O)(=O)N1CCCC(C(=O)N2CCN(c3ccccc3F)CC2)C1 (stereo not drawn) | 7%
Cc1cc(=O)oc2cc(OCC(=O)NCCCN3CCOCC3)ccc12 | -4%

More compounds follow:
mol | VDR inhibitor
COc1ccc(S(=O)(=O)N2CCC(C(=O)Nc3cccc(C(C)=O)c3)CC2)cc1 | 1%
CSc1ccc(C(=O)C2CCCN(C(=O)c3ccc4c(c3)no[n+]4[O-])C2)cc1 (stereo not drawn) | -2%
N[C@@H](Cc1ccc(O)c(I)c1)C(=O)O | 5%
Cc1ccccc1C(OCCN(C(C)C)C(C)C)c1ccccc1 (stereo not drawn) | -5%
O=C(CC1SC(=NCC2CCCO2)NC1=O)Nc1cc([N+](=O)[O-])ccc1Cl (stereo not drawn) | 4%
CC(C)[C@H](NC(=O)C1CCN(S(=O)(=O)c2ccc(F)cc2)CC1)C(=O)N1CCCC1 | -3%
CCn1ncc(N(C)N)c(Cl)c1=O | -4%
COc1ccc(-c2nc(C#N)c(N3CCC(C(N)=O)CC3)o2)cc1OC | -7%

Additional compounds follow.
mol | VDR inhibitor
Cc1c(C)c2cc(Cl)c(OC(C)C(=O)NCCN3CCOCC3)cc2oc1=O (stereo not drawn) | ?
COc1ccc(-n2c(=O)cnc3cnc(Oc4ccccc4)nc32)cc1 | -15%
CC(NC(=O)CSc1ccc(S(=O)(=O)N2CCOCC2)cn1)c1ccc(Cl)cc1Cl (stereo not drawn) | -9%
CC(=O)N1CCc2cc(S(=O)(=O)CCC(=O)NCc3cccs3)ccc21 | -18%
Cc1cccc(NC(=O)CCNC(=O)c2ccccc2)c1 | -1%
COc1ccc(C(=O)N(Cc2sccc2C)C2CCS(=O)(=O)C2)cc1 (stereo not drawn) | 0%&-19%
Cc1ccc(C(=O)Oc2ccc(-c3nccc(-c4ccccn4)n3)cc2)cc1 | 8%
CC(C)(C)NC(=O)c1nn(Cc2ccccc2)c(=O)c2ccccc12 | 4%

Later entries:
mol | VDR inhibitor
O=Nc1ccc2oc(=O)ccc2c1 | 13µM*
COc1ccccc1CNC(=O)[C@@H](NC(=O)C1CCN(C(=O)[C@@H]2CCCN2)CC1)C(C)C | -1%
Cc1cc(Nc2c(C#N)c(N)nn2C)ccc1F | 10%
CCN(C(=O)CSc1nnc(C)n1-c1ccc(C)cc1)c1c(N)n(Cc2ccccc2)c(=O)[nH]c1=O | -4%
CCOC(=O)C1CCCN(CC(=O)Nc2cc(C)c3c(=O)oc4ccccc4c3n2)C1 (stereo not drawn) | 0%
O=C(NCc1ccco1)c1noc2c1CCCC2 | -5%
C[C@@H]1CN([C@H](C)CO)C(=O)Cc2cc(NC(=O)CCC(F)(F)F)ccc2O[C@@H]1CN(C)S(=O)(=O)c1ccccc1 | 3%
O=S(=O)(NCc1ccco1)c1ccc(Cl)nc1 | -4%

Next part:
mol | VDR inhibitor
Cc1cc2cc(CCNC(=O)c3cccc([N+](=O)[O-])c3)c(=O)[nH]c2cc1C | -7%
N#CCCn1cc(/C=N/N=C2\NC(=O)C(CC(=O)O)S2)c(-c2ccc(F)cc2)n1 (stereo not drawn) | 8%
Cc1ccc2sc(N(Cc3cccnc3)C(=O)CCOc3ccccc3)nc2c1C | 5%
CCS(=O)(=O)N1CCN(c2ccc([N+](=O)[O-])c(NCc3ccccc3)c2)CC1 | 11%
CCCCN(C(=O)CSc1ncnc2sccc12)c1c(N)n(Cc2ccccc2)c(=O)[nH]c1=O | -5%
COc1cccc(NC(=O)CCN2C(=O)c3cccc([N+](=O)[O-])c3C2=O)c1 | -3%
O=C(c1cnn(-c2ccccc2)c1)c1cc(F)ccc1O | ?
NC(=O)COc1c(-c2ccco2)oc2ccccc2c1=O | -9%

The results go on:
mol | VDR inhibitor
COc1ccccc1NC(=O)N(CCN1CCOCC1)Cc1cc2cc(C)cc(C)c2[nH]c1=O | -6%
CCOc1ccc(-c2n[nH]c(C)c2-c2ccccn2)c(O)c1 | 13%
CCc1ccc(N2C(=O)C(Cl)=C(Nc3ccc(C(=O)N4CCCC4)cc3)C2=O)cc1 | 4%
O=C(Nc1cc(S(=O)(=O)N2CCOCC2)ccc1Cl)c1cc2ccccc2o1 | -11%
O=C(O)c1ccc(CSc2ncnc3c2cnn3Cc2ccccc2)cc1 | 3%
COc1ccc(-c2ccc3c(c2)S(=O)(=O)c2cccc(C(=O)N4CCN(C5CCCCC5)CC4)c2C3=O)cc1OC | -9%
Cc1csc(SCCN2C(=O)c3ccccc3C2=O)n1 | 6%
CN(C)C(=O)c1ccc(NC(=O)CSc2nc3ccccc3[nH]2)cc1 | -12%

More records.
mol | VDR inhibitor
Cn1c(SCc2ccc(C#N)cc2)nnc1-c1ccncc1 | -21%
CCOc1ccc2c(c1)c1nnc(SCC(=O)N3CCC(C)CC3)nc1n2C | -9%
O=C(O)/C=C\C(=O)Nc1ccccc1F | -14%
S=C(NCc1ccncc1)Nc1ccc(Cl)cc1Cl | -18%
COc1cc(/C=C2\SC(=Nc3ccccc3)N(CCc3c[nH]c4ccccc34)C2=O)ccc1OC(C)C(=O)O (stereo not drawn) | ?
Cc1ccc(NC(=O)NCCc2c(C)nn(C)c2C)cc1Cl | 6%
CCCCC1CCC(C(=O)N2CC(=O)Nc3ccc(Br)cc3C2c2ccc(F)cc2)CC1 (stereo not drawn) | 14%
Cc1cc(C(=O)NNc2ccc(F)cc2F)no1 | 7%

Later entries:
mol | VDR inhibitor
CNC(=O)C(=O)NCC1OCCCN1S(=O)(=O)c1ccc(F)cc1C (stereo not drawn) | -6%
Cc1cc(C(=O)NNC(=O)c2cccc(N(C)C)c2)c(C)o1 | 5%
CS(=O)(=O)c1ccc(-c2nnn(CC(N)=O)n2)cc1 | -16%
O=C(CCCc1ccccc1)NCCC1=CCCCC1 | 3%
CC(C)n1c(SCC(=O)N2CCN(C)CC2)nc2c1c(=O)n(C)c(=O)n2C | 13%
CCC(C)NC(=O)c1ccc2nc(Cc3ccc(OC)cc3)oc2c1 (stereo not drawn) | 0%&-1%
COc1ccc(Cl)cc1NC(=O)CSc1nc(-c2ccccc2)c2ccccc2n1 | 8%
CCOCc1nnc(NC(=O)CS(=O)(=O)c2ccc(C)cc2)s1 | -8%

(next part)
mol | VDR inhibitor
CCc1ccc(C2CC(=O)Oc3c2c(=O)n(C)c2ccccc32)cc1 (stereo not drawn) | 6%
COc1ccc([N+](=O)[O-])cc1C(=O)C(=O)c1ccccc1 | -22%
CCCCOc1ccccc1C1NC(=O)NC(C)=C1C(=O)OCCOC (stereo not drawn) | -2%
CCS(=O)(=O)N1Cc2ccccc2CC1C(=O)N1CCN(c2ccccc2)CC1 (stereo not drawn) | -5%
N=c1oc2cc(O)ccc2cc1C(=O)Nc1ccc(F)cc1 | 2%

Some of these compounds in order of count of non-hydrogen atoms, highest first.
mol | VDR inhibitor
CC1(C)CC(=O)C(C=NCCN2CCN(C(=S)NC3CCCCC3)CC2)=C(O)C1 | -15%
Cc1cccc(C(=O)NCCc2sc(-c3ccccc3)nc2C)c1 | -1%
Cc1cc(C(=O)NNc2ccc(F)cc2F)no1 | 7%

Some of the entries so far, field by field.
structure: CCc1ccc(C2CC(=O)Oc3c2c(=O)n(C)c2ccccc32)cc1 (stereo not drawn)
  VDR inhibitor = 6%

structure: COc1ccc([N+](=O)[O-])cc1C(=O)C(=O)c1ccccc1
  VDR inhibitor = -22%

structure: CCCCOc1ccccc1C1NC(=O)NC(C)=C1C(=O)OCCOC (stereo not drawn)
  VDR inhibitor = -2%

structure: CCS(=O)(=O)N1Cc2ccccc2CC1C(=O)N1CCN(c2ccccc2)CC1 (stereo not drawn)
  VDR inhibitor = -5%
